rRNA inh HTS: reduced GFP signal of wild-type E. coli, primary screen, bacterial rRNA inhibitor project, GFP/RFP fluorescence, OD600, single point | 350,000 compounds, 1.6% hits | E. coli WT GFP vs humanized-ribosome RFP mutants, 24 h; stronger effect = lower value; DMSO median 0, no signal -100 | GFP signal change (wild-type ribosome), % (test concentration not listed);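 active = significant combined selectivity score with lowered wild-type GFP, culture density cut under 30%, mutant RFP and density less affected; inactive = any of these conditions unmet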; also: one replicate is shown; some compounds called inactive have numbers as strong as hits
AF4-AF9 inh: inhibitors of AF4 peptide binding to AF9, primary screen, biochemical, AlphaScreen, biotin-AF4 peptide, FLAG-AF9, single point; Protein AF-9 (Homo sapiens), P42568; inhibition, % at 10 µM; 350,000 compounds, 0.47% hits; AID 651704, 2012;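 active = every replicate reaching a set inhibition limit, whatever the replicate mean, cut at about 25% in these data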;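 also: 0% = plate neutral control median and 100% = total signal loss; the record names both 10 and 1 µM as test concentration; the first replicate is given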
Target sequence (P42568 whole entry, looked up): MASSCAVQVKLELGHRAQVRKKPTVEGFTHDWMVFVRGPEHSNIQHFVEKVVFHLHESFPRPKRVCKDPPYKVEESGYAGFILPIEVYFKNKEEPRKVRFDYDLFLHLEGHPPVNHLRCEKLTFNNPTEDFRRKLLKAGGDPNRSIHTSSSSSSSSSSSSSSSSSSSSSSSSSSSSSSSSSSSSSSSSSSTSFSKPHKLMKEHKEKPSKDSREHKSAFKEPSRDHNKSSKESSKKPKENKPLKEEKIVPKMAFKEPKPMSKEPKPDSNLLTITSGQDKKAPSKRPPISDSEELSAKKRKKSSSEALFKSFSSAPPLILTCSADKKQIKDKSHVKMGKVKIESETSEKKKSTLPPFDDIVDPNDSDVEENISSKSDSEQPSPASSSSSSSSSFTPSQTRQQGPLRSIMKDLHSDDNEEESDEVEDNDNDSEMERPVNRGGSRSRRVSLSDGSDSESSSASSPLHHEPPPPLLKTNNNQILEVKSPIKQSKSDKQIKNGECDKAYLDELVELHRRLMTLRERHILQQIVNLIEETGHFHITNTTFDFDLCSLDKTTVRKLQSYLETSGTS
E coli growth: E. coli growth inhibition, primary screen, OD600. Escherichia coli growth, 23 h; stronger effect = lower value. OD600 absorbance (no concentration beside the values). 330,000 compounds, 0.21% hits. AID 1053175, 2014;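 active = OD600 absorbance below the run mean of sample wells minus 3.6 SD, in any replicate, cut at about 0.56 in these data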;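 also: stock transfer was 300 nL into about 60 µL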
Vif TR-FRET: inhibitors of Vif binding to APOBEC3G peptide, primary screen, biochemical, TR-FRET, GST-Vif 1-94, biotin-A3G peptide, dose response retest (AID 1117319); inhibition, %; hits with a dose series show IC50 in µM; TR-FRET GST-Vif / biotin-A3G peptide binding; higher % means a stronger effect; test concentration not given here; strong numbers were not always called active; Virion infectivity factor (Human immunodeficiency virus type 1 group M subtype B (isolate …; 260,000 compounds, 0.57% hits;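 active = above the screen mean plus three standard deviations and confirmed in dose response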;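 also: Vif residues 1-94 fused to GST binding biotinylated APOBEC3G peptide 110-148; 0% = full assay without inhibitor and 100% = GST in place of GST-Vif; retest series ran down from 100 µM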
FGF22 binding: binders of human FGF22 protein, primary screen, FGF22 synaptogenesis inhibitor project, biophysical, thermal shift, single point | Fibroblast growth factor 22 (Homo sapiens), Q9HCT0 | recombinant FGF22 thermal shift, SYPRO orange fluorescence; percent of sucrose octasulfate shift, DMSO zero | calls only at 9.99 µM | 340,000 compounds, 1.5% hits;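 active = melting point raised past a set limit in the mean and every replicate; three in four hits are not shown here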
Target sequence (Q9HCT0 whole entry, looked up): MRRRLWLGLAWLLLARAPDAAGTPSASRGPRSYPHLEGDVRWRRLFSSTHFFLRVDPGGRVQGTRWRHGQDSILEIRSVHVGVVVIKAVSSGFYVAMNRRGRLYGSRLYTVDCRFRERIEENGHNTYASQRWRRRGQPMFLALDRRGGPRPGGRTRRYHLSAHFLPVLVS
HNF4A DNA FP: change in binding of human HNF4A to DNA, primary screen, biochemical, fluorescence polarization, FITC-DNA. 360,000 compounds, 0.3% hits. 1 h. activity change, % at 10 µM. Hepatocyte nuclear factor 4-alpha (Homo sapiens), P41235; in the data active = activity change above about 30%, passing the limit was not always enough;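 also: controls were the assay level and a saturating level of protein; the project sought stronger binding though the title names inhibitors; some compounds called inactive have numbers as strong as hits; positive values seem to mean higher polarization but the record does not say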
ALR inh: inhibitors of human ALR sulfhydryl oxidase, primary screen, biochemical, H2O2 detection, HRP-luminol luminescence, single point; FAD-linked sulfhydryl oxidase ALR (Homo sapiens), P55789; purified ALR, DTT oxidation; inhibition, % (no concentration beside the values); 290,000 compounds, 3.8% hits;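 active = mean and each replicate at 75% or more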;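 also: stock transfer was 7.5 nL into about 7.5 µL; 0% = neutral wells and 100% = wells with inactivated enzyme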
Target sequence (P55789 whole entry, looked up): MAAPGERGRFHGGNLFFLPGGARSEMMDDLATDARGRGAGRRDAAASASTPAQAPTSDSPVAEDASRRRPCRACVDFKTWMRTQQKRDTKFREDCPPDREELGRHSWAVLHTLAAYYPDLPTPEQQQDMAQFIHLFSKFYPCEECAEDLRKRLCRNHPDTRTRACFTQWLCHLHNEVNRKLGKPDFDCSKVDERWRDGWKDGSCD
rRNA inh HTS OD600: also measured in rRNA inh HTS; calls as there; OD600 change, %; measured here: OD600 growth;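 optical density of the mix in the first replicate; 0 = DMSO median and -100 = no signal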
rRNA inh HTS RFP: also measured in rRNA inh HTS; calls as there; RFP signal change, %; measured here: RFP humanized mutant strains;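 first replicate; 0 = DMSO median and -100 = no signal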
Starred values were filed as active, the others as inactive; i = inactive; nt = not tested or not shown; & = joins results of further samples. These rows are one share of the data (hit frequency here may not be typical).

#	SMILES	rRNA inh HTS	rRNA inh HTS OD600	rRNA inh HTS RFP	AF4-AF9 inh	E coli growth
1	O=C(O)CC1S/C(=N\N=C2CCCCCC2)N(c2ccccc2)C1=O (stereo not drawn)	13	7	-6.3	-15	nt
2	CC1CCc2nc(NC(=O)CCSc3ccccc3)sc2C1 (stereo not drawn)	-1	8	-1.0	-4.8	0.75
3	Cc1cc(C)n(C(=O)c2ccc(S(=O)(=O)N3CCOCC3)cc2)n1	10	9	-2.8	-11	0.73
4	Cc1c(C(=O)N2CC3(CC(c4cccc(NC(=O)CC(c5ccccc5)c5ccccc5)c4)=NO3)C[C@@H]2C(N)=O)cc([N+](=O)[O-])cc1[N+](=O)[O-] (stereo partly drawn)	6	19	0.7	0.0	nt
5	COc1cccc2c(O)c(-c3ccccc3)c(=O)[nH]c12	-1	-6	-3.7	-0.7	0.64
6	CCNC(=O)Oc1ccc[nH]c1=O	11	7	0.3	-0.4	0.7
7	COc1ccc(S(=O)(=O)Nc2ccc3c(c2)C(=O)N([C@@H](C)CO)C[C@@H](C)[C@H](CN(C)CC2CCCCC2)O3)cc1	-1	-7	-0.3	1.6	nt
8	Cc1cccc(C(=O)Nc2ccc3c(c2)nc(C)n3C)c1	3	18	-0.1	-0.3	0.67
9	CN(CC(=O)Nc1cccc(F)c1)C(=O)c1cc(S(=O)(=O)N2CCN(c3ccccc3)CC2)ccc1Cl	nt	nt	nt	1.0	0.66
10	O=C(Cc1ccc([N+](=O)[O-])cc1)Nc1ccc(Cl)cc1	17	21	1.1	-0.7	0.69
11	O=Cc1c(-c2ccc(Cl)cc2)oc2ccc(O)cc12	-30*	-15*	-1.4*	-1.2	0.58
12	Fc1ccc(-c2csc(NC3=NCCC3)n2)cc1	-1	-17	-2.0	-0.3	0.64
13	COc1ccc(NC(=O)CO/N=C/C(=O)Nc2ccccc2C)c([N+](=O)[O-])c1	-8	-1	-3.2	1.0	nt
14	Cc1cccc(C2c3[nH]c4ccccc4c3CCN2C(=O)c2cc(-c3cccn3C)n[nH]2)n1 (stereo not drawn)	-6	-7	3.0	16	0.67
15	CS(=O)(=O)Nc1ccc(C(=O)Nc2ccccc2C(=O)NCc2ccco2)cc1	-10	-10	-6.3	4.4	0.68

#	Vif TR-FRET	FGF22 binding	HNF4A DNA FP	ALR inh
1	-1%	i	-0.6	nt
2	1%	i	-1.6	nt
3	22%	i	6.3	31
4	27%	i	1.7	-1
5	nt	i	-3.2	-5
6	4%	i	-2.4	-106
7	nt	i	nt	nt
8	0%	i	-6.0	-2
9	-5%	i	-3.5	-13
10	-11%	i	0.0	26
11	nt	i	-2.5	-24
12	8%	nt	-0.9	97*
13	-8%	i	3.9	-1
14	-6%	i	1.4	-2
15	nt	i	-0.2	-9

Rewritten with values under each structure: three of the compounds above.
Values run as follows: rRNA inh HTS, rRNA inh HTS OD600, rRNA inh HTS RFP, AF4-AF9 inh, E coli growth, Vif TR-FRET, FGF22 binding, HNF4A DNA FP, ALR inh
6	CCNC(=O)Oc1ccc[nH]c1=O
    11, 7, 0.3, -0.4, 0.7, 4%, i, -2.4, -106
7	COc1ccc(S(=O)(=O)Nc2ccc3c(c2)C(=O)N([C@@H](C)CO)C[C@@H](C)[C@H](CN(C)CC2CCCCC2)O3)cc1
    -1, -7, -0.3, 1.6, nt, nt, i, nt, nt
8	Cc1cccc(C(=O)Nc2ccc3c(c2)nc(C)n3C)c1
    3, 18, -0.1, -0.3, 0.67, 0%, i, -6.0, -2

Additional structures follow:
#	SMILES	rRNA inh HTS	rRNA inh HTS OD600	rRNA inh HTS RFP	AF4-AF9 inh	E coli growth
16	O=C(C[C@H]1C=C[C@H](NS(=O)(=O)c2ccccc2)[C@@H](CO)O1)N1CCC(Cc2ccccc2)CC1	2	-13	0.5	3.4	nt
17	CC12CCC(c3c1nc1ccccc1[n+]3[O-])C2(C)C (stereo not drawn)	nt	nt	nt	nt	0.68
18	COc1ccc(CC(=O)Oc2ccc(Br)cc2F)cc1S(=O)(=O)N1CCOCC1	-1	3	-0.3	8.8	0.68
19	CCCc1cc(=O)[nH]c(SCC(=O)NC2CC2)n1	nt	nt	nt	1.7	0.66
20	O=C(C[C@@H]1C[C@@H]2c3cc(NC(=O)C4CCOCC4)ccc3O[C@@H]2[C@@H](CO)O1)NCc1ccc2c(c1)OCO2	2	7	0.3	-0.9	nt
21	COc1ccc(NC(=S)NC(=O)c2ccccc2)cn1	0	4	2.2	1.3	0.68
22	O=[N+]([O-])c1ccc(N2CCN(S(=O)(=O)c3ccccc3)CC2)cc1NCC1CCCO1 (stereo not drawn)	nt	nt	nt	nt	0.71
23	CSCC[C@H](NC(=O)c1ccc2ccccc2c1)C(=O)N1CCC2(CC1)NCCc1[nH]cnc12	-1	3	1.8	15	0.7
24	C[C@H]1CN([C@@H](C)CO)C(=O)CCCn2nncc2CO[C@H]1CN(C)C(=O)C1CC1	2&0	2&0	-5.0&-2.1	-3.8&-0.6	nt
25	COC(=O)c1nc(-c2ccccc2)oc1N(C)C	nt	nt	nt	nt	0.69
26	Cn1c(SCC(=O)NCc2cccs2)nnc1-c1ccc(S(=O)(=O)N2CCCC2)cc1	nt	nt	nt	nt	0.69
27	CN1C(=O)c2ccc(NC(=O)c3c(C(=O)O)cccc3[N+](=O)[O-])cc2C1=O	-3	5	-2.3	-1.6	0.66
28	CCN(CC(=O)NCc1ccc(F)cc1)Cc1nc2ccccc2c(=O)[nH]1	nt	nt	nt	nt	0.69
29	CCOC(=O)C1=C(c2ccccc2)NC(=S)NC1c1ccc(Cl)cc1 (stereo not drawn)	-8	-8	-0.8	3.8	0.64
30	O=c1cc(CSc2nc3cc(Cl)ccc3o2)nc2sccn12	nt	nt	nt	nt	0.74

#	Vif TR-FRET	FGF22 binding	HNF4A DNA FP	ALR inh
16	nt	i	nt	nt
17	0%	nt	-0.3	-1
18	-9%	i	4.1	6
19	nt	i	-1.7	nt
20	nt	i	nt	nt
21	-6%	i	2.1	nt
22	4%	nt	-1.4	-13
23	nt	i	2.6	0
24	3%	i	-7.9	nt
25	0%	nt	0.7	22
26	-2%&3%	nt	1.0	nt
27	-11%	i	-3.9	16
28	-6%	nt	3.8	-2
29	2%	i	0.3	-2
30	9%	nt	-0.3	-5

(listing goes on)
#	SMILES	rRNA inh HTS	rRNA inh HTS OD600	rRNA inh HTS RFP	AF4-AF9 inh	E coli growth
31	Fc1cccc(-c2cc3nc4c(c(NCc5ccco5)n3n2)CCCC4)c1	-32*	-17*	7.3*	-13	0.71
32	CCc1nnc(NS(=O)(=O)c2ccc(NC(=O)c3ccc(C#N)cc3)cc2)s1	1	1	0.2	3.5	0.68
33	CCOc1ccc(N2CC(C(=O)NCc3cccc(C)c3)CC2=O)cc1 (stereo not drawn)	nt	nt	nt	nt	0.69
34	C[C@H]1CCCCO[C@@H](CN(C)C(=O)CCCN(C)C)[C@@H](C)CN([C@@H](C)CO)C(=O)c2cc(NC(=O)C3CCCCC3)ccc2O1	3	2	0.0	-3.0	nt
35	CC(C)NC(=O)N(C)C[C@H]1Oc2ccc(NC(=O)C3CCCCC3)cc2C(=O)N([C@H](C)CO)C[C@H]1C	2	2	-1.0	-1.6	nt
36	C/C(N)=C(/C#N)C(=O)COC(=O)c1cc(C)n(-c2ccc(F)cc2)c1C	-13	-29	-0.4	0.3	0.67&0.72
37	CCN(CC)c1ccc(S(=O)(=O)N2CCCCC2)cc1NC(=O)C1=COCCO1	-10	-30	6.9	9.3	0.68
38	O=C(c1cc2c(s1)CCCC2)N1CCN(S(=O)(=O)c2ccccc2C(F)(F)F)CC1	nt	nt	nt	nt	0.69
39	C1=C(CCNc2ncnc3nc[nH]c23)CCCC1	-7	-9	-2.3	-1.7	0.76
40	CCN1C(=O)[C@H]2[C@@H](c3ccc(-c4cccc(Cl)c4)cc3)N[C@@](C)(C(=O)OC)[C@H]2C1=O	-6	-13	-2.4	0.3	nt
41	C[C@H]1CN([C@@H](C)CO)C(=O)Cc2cc(NS(=O)(=O)c3ccccc3)ccc2O[C@@H]1CN(C)Cc1ccncc1	-8	-5	2.3	7.3	nt
42	CC1(C(=O)NS(=O)(=O)c2cccc(F)c2)CCN1C(=O)c1cccc2ccccc12 (stereo not drawn)	8	2	1.5	-1.0	nt
43	COc1ccccc1CN1[C@@H]2c3cccc(=O)n3C[C@@H]2[C@@H](CO)[C@@H]1C(=O)NCc1ccccc1	-2	-2	-3.1	0.3	nt
44	CN1CCN(c2oc(-c3ccco3)nc2S(=O)(=O)c2ccccc2)CC1	nt	nt	nt	nt	0.74
45	COc1cccc(-n2c(C)cc(/C=C3\C(=N)N4N=C(CC(=O)N5CCOCC5)SC4=NC3=O)c2C)c1	9	-6	2.0	-1.6	0.67

#	Vif TR-FRET	FGF22 binding	HNF4A DNA FP	ALR inh
31	51µM*	i	6.2	-2
32	nt	i	0.7	-2
33	2%	nt	0.5	-2
34	nt	i	nt	nt
35	nt	i	nt	nt
36	-3%&8%	i	1.1&-0.9	2
37	2%	i	-2.3	2
38	nt	nt	-5.0	-6
39	3%	i	2.8	5
40	nt	i	4.6	3
41	nt	i	nt	nt
42	nt	i	-0.1	nt
43	nt	i	nt	nt
44	16%	nt	-7.2	2
45	nt	i	5.5	54

Next section:
#	SMILES	rRNA inh HTS	rRNA inh HTS OD600	rRNA inh HTS RFP	AF4-AF9 inh	E coli growth
46	C/C=C/c1ccc2c(c1)O[C@@H](CN(C)C(=O)Cc1ccncc1)[C@@H](C)CN([C@H](C)CO)S2(=O)=O	-2	6	0.9	1.7	nt
47	O=C(Nc1ccc(C(=O)N2CCN(c3ccc(F)cc3)CC2)cc1)C1=CSCCO1	-5	-23	12	3.3	0.64
48	CC(=O)c1cccc(N(CC(=O)NC2CCCC2)C(=O)c2ccc(C)s2)c1	3	-1	-2.6	-2.4	0.59
49	O=C(COC(=O)c1cc([N+](=O)[O-])ccc1N1CCOCC1)c1ccccc1	6	-14	-2.9	0.2	0.65
50	CCC(=O)Nc1ccc2c(c1)C(=O)N(C)C[C@@H](OC)[C@@H](C)CN(CC1CCCCC1)[C@H](C)CO2	4	7	-1.9	-0.8	nt
51	O=C(NC(=S)N1CC=CCC1)c1ccccc1	-5	2	1.5	-7.2	nt
52	Cc1ccc(S(=O)(=O)N2CCN(CC(O)c3ccccc3)CC2)cc1C (stereo not drawn)	16	19	0.9	-0.3	0.7
53	N=c1ncn(CC(O)CO)c2nc(N3CCOCC3)[nH]c12 (stereo not drawn)	nt	nt	nt	nt	0.72
54	CCOC(=O)CCCCCC(=O)Nc1ccc2c(c1)C(=O)N([C@@H](C)CO)C[C@H](C)[C@H](CN(C)C(=O)Nc1ccc(C(F)(F)F)cc1)OCCCC[C@H](C)O2	14&-2	10&-1	-1.2&-1.6	-0.7&-0.9	nt
55	CCCCNC(=O)CCCn1c(=O)[nH]c2ccc(Br)cc2c1=O	nt	nt	nt	nt	0.65

#	Vif TR-FRET	FGF22 binding	HNF4A DNA FP	ALR inh
46	nt	i	nt	nt
47	nt	i	-0.3	4
48	-9%	i	-3.3	2
49	6%	i	-1.0	-2
50	nt	i	nt	nt
51	-3%	nt	-3.5	nt
52	-4%	i	2.1	-5
53	14%	nt	-0.6	29
54	-3%	i	1.8	nt
55	11%	nt	-2.6	-2

Source: PubChem
